Autofluor counter – compound fluorescence in toxin protease inhibitor counterscreen. AID 624483. fluorescence intensity (no concentration beside the values). 360,000 tested, 3.1% active. compound autofluorescence counterscreen, microsphere flow cytometry; stronger effect = higher value;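 active = at least 3 SD above the mean of all compounds, about 16000 in these data; inconclusive = too few beads counted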;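 note: 100 nL of 1 mM stock went into each well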
Sa ugtP lethal – growth inhibition of S. aureus ugtP deletion strain | 330,000 tested, 0.54% active | growth inhibition, % (concentration not given with the values) | AID 1259309 | S. aureus RN4220 ugtP deletion, OD600 growth, 16 h; some inactives read as strong as hits;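 active = z-score under -3 and OD600 up to 0.15 on both plates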;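 note: plate controls were untreated wells for no effect and antibiotic for full effect; wells of about 80 µL received 100 nL stock; the first replicate is given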
BJeLR lethal – BJeLR cell viability loss. BJeLR (HRASV12) viability, CellTiter-Glo ATP luminescence, 48 h; reference of the scale not given here. inhibition, % (no concentration beside the values). 300,000 tested, 0.17% active. AID 1554;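 active = replicate mean above 50%; inconclusive = above 50% but judged a plate artefact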;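 note: 50 nL library stock added to about 25 µL; numbers are from one replicate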
Sa RN4220 lethal – S. aureus RN4220 growth inhibition; inhibition, % (concentration not given with the values); OD600, 16 h; 330,000 tested, 0.33% active;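 active = z-score of -3 or lower and OD600 up to 0.18 on both plates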;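 note: plate controls were untreated cells for no effect and reference antibiotic for full effect; stock transfer was 100 nL into about 80 µL; one replicate is shown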
PrP 5UTR inh – inhibition of PrP 5' UTR reporter expression. AID 488862. 340,000 tested, 0.35% active. cell-based PrP 5' UTR mRNA reporter, plate reader. inhibition, % (test concentration not listed);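 active = every replicate at 50% or more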;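 note: 0 = median of the neutral control wells; tested in H4 reporter cells; numbers are from one replicate; inactives centre near -14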
Mtb hypoxia rep – inhibitors of hypoxia-regulated fluorescent reporter in Mycobacterium tuberculosis; M. tuberculosis hypoxia-regulated fluorescent reporter, fluorescence; fluorescence inhibition, % (test concentration not listed); 300,000 tested, 0.1% active;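 active = 35 to 45% if threefold the growth effect, above 45% if 1.5-fold the growth effect; inactive = the rest, general growth blockers included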;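 note: wells of about 50 µL received 100 nL stock; 0% = vehicle wells and 100% = reference inhibitor wells; whole bacteria with a GFP reporter of the hypoxia response; strong numbers were not always called active; many hits fall short of the cut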
Mtb hypoxia rep growth – recorded beside Mtb hypoxia rep, whose call it bears; growth inhibition, %; measured here: M. tuberculosis growth (absorbance);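 0% = vehicle and 100% = reference antibiotic; read after six days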
The depositor's hits bear a star; ? = inconclusive; / = no result given.

SMILES	Autofluor counter	Sa ugtP lethal	BJeLR lethal	Sa RN4220 lethal	PrP 5UTR inh	Mtb hypoxia rep	Mtb hypoxia rep growth
COc1cccc(/C=C2\SC(=S)N(CCCC(=O)Nc3ccc(C(=O)O)cc3)C2=O)c1	5591	3	9	8.3	-9	16	11
COC(=O)CSC(=S)N1C(C)CCCC1C (stereo not given)	4655	17	8	8.6	-2	-1	7
CCCCN(CC)C(=S)Nc1ccc2nc3n(c(=O)c2c1)CCCCC3	9269	15	-3	4.2	-32	13	8
CCc1ccc(/C=N/NC(=O)c2cc(C3CC3)nc3ccccc23)s1	2334	/	18	/	-15	/	/
Cc1cc(C)n2c(SCc3ccc(C#N)cc3)nnc2n1	22207*	5	-4	4.0	-68	10	13
NC(=O)CSc1nnc(C2CC2)n1Cc1ccccc1	3908	4	-6	-0.5	-16	7	7
Cc1nc(N)ncc1C(=O)Nc1ccccc1	4233	4	-4	4.7	-25	2	6
CC(=O)c1cnc2c(-c3cccc(Br)c3)cnn2c1C	2027	-16	-3	8.9	-33	1	10
CCCCn1c(N)c(N(CC(C)C)C(=O)c2cc(S(=O)(=O)N3CCCCC3)ccc2C)c(=O)[nH]c1=O	4380	5	-4	2.0	-25	6	-3
O=C(CNC(=S)N(CCCN1CCOCC1)Cc1cccs1)NC1CCCCCCC1	7321	1	1	9.9	-12	14	10
CC1CCC2(CC1)NC(=O)N(CC(=O)Nc1ccc3c(c1)OCCO3)C2=O (stereo not given)	4162	1	0	5.3	-48	-3	0
O=C(O)CCC(=O)N1CCN(S(=O)(=O)c2ccc3ccccc3c2)CC1	5533	-2	-8	1.6	-5	-1	12

A different layout for some results above.
Results follow in this order: Autofluor counter, Sa ugtP lethal, BJeLR lethal, Sa RN4220 lethal, PrP 5UTR inh, Mtb hypoxia rep, Mtb hypoxia rep growth
> COC(=O)CSC(=S)N1C(C)CCCC1C (stereo not given)
  4655, 17, 8, 8.6, -2, -1, 7
> CCCCN(CC)C(=S)Nc1ccc2nc3n(c(=O)c2c1)CCCCC3
  9269, 15, -3, 4.2, -32, 13, 8
> CCc1ccc(/C=N/NC(=O)c2cc(C3CC3)nc3ccccc23)s1
  2334, /, 18, /, -15, /, /
> Cc1cc(C)n2c(SCc3ccc(C#N)cc3)nnc2n1
  22207*, 5, -4, 4.0, -68, 10, 13
> NC(=O)CSc1nnc(C2CC2)n1Cc1ccccc1
  3908, 4, -6, -0.5, -16, 7, 7
> Cc1nc(N)ncc1C(=O)Nc1ccccc1
  4233, 4, -4, 4.7, -25, 2, 6
> CC(=O)c1cnc2c(-c3cccc(Br)c3)cnn2c1C
  2027, -16, -3, 8.9, -33, 1, 10

Further results follow.
SMILES	Autofluor counter	Sa ugtP lethal	BJeLR lethal	Sa RN4220 lethal	PrP 5UTR inh	Mtb hypoxia rep	Mtb hypoxia rep growth
COC(=O)C=Cc1cc(F)ccc1S(=O)(=O)NC(C)(C)C	/	-12	/	4.0	/	5	8
COc1ccc(C(c2nnnn2C2CCCC2)N2CCC(C)CC2)cc1 (stereo not given)	4303	4	-2	3.4	-13	/	/
COc1ccccc1C(=O)NC(CCSC)C(=O)N1CCC(Cc2ccccc2)CC1 (stereo not given)	?	12	0	0.5	-1	7	-1
CCC(C)NC(=O)C1CCC(CNS(=O)(=O)c2ccccc2)CC1 (stereo not given)	3028	5	5	1.2	15	-3	-11
Cc1ccc(-c2nnc(Cc3ccc(Cl)cc3)o2)cc1	6326	7	7	1.5	-49	/	/
CC(NCC(=O)Nc1ccccc1C(=O)NC1CC1)c1ccccc1Cl (stereo not given)	3998	2	/	2.2	-20	12	1
Cc1ccc(N2CCN(S(=O)(=O)N(C)C)CC2)cc1C	4356	-3	6	2.2	-29	13	11
Cn1c(OCc2cccnc2)nc2c1c(=O)n(Cc1ccc(F)cc1)c(=O)n2C	5879	12	-5	1.7	-21	0	7
Cc1ccc(C(=O)N2CCN(c3cc4c(cc3[N+](=O)[O-])n(C)c(=O)n4C)CC2)cc1	8125	4	7	4.7	-2	6	5
Cc1cc(C)cc(OCC(=O)N2CCCCCC2)c1	22007*	4	0	0.5	-7	13	9
CCOc1ccc(-c2c(=O)n(OCc3ccc([N+](=O)[O-])cc3)c3ccccc3[n+]2[O-])cc1	/	-8	5	1.3	/	8	1
CC(=O)c1ccc(N2CCN(C(=S)Nc3cc(C)ccc3C)CC2)cc1	2517	2	4	0.7	-25	1	7
COc1cc(CN2CCCC(C(=O)c3ccc(C(C)(C)C)cc3)C2)cc(OC)c1O (stereo not given)	4223	13	-3	3.0	-18	9	2
CC1CC(C)CN(S(=O)(=O)c2ccc(Oc3ccc([N+](=O)[O-])cc3)cc2)C1 (stereo not given)	2141	3	9	-0.1	-15	1	4
Cc1nc2ccccc2c(=O)n1NC(=O)c1ccc([N+](=O)[O-])cc1	2308	11	9	9.6	-15	1	0
CCNC(=O)N(CCOC)CC1CCCN(C2Cc3ccccc3C2)C1 (stereo not given)	3935	7	3	2.4	-72	-1	3
O=C(NCc1cccc(OC(F)(F)F)c1)c1cccc2c1C(=O)c1ccc(-c3ccc(F)cc3OCc3ccccc3)cc1S2(=O)=O	3914	-2	/	1.3	-5	-9	-6
O=C(COC(=O)/C=C/c1cccc(F)c1)NC1CCCCCC1	3766	2	/	0.8	5	8	8
Cc1ccc(NC(=O)/C(Cl)=C/c2ccccc2)cc1C	2541	-2	-15	-4.0	-160	7	10
CCc1ccc(NC(=S)Nc2ccc3cn[nH]c3c2)cc1	2385	6	-3	-1.2	-16	/	/
O=C(Nc1ccccc1)c1cc(S(=O)(=O)N2CCOCC2)cs1	4401	7	-1	1.2	-16	11	7
COc1ccc(C(=O)N2CCCC(c3nc(-c4ccc(C)o4)no3)C2)cc1OC (stereo not given)	3426	14	3	1.6	-23	8	-4
CCOC(=O)C1=C(C)N=c2s/c(=C\c3ccc(OCC(=O)O)c(OC)c3)c(=O)n2C1c1ccc(OC)cc1 (stereo not given)	3582	/	-1	/	-17	/	/
COCCN(C(=O)CCc1ccc(OC)cc1)c1nnc(-c2ccncc2)s1	3965	-2	-2	1.5	-7	-4	5
CC(=O)c1cccc(NC(=O)C(Sc2ncnc3ccccc23)c2ccccc2)c1 (stereo not given)	2607	-20	-7	-2.5	-19	6	4
CCC(C(=O)NC1CCCCC1)N(C(=O)c1snc(C(N)=O)c1N)c1ccc(OC)cc1OC (stereo not given)	6085	13	-6	-2.4	-10	3	3
O=C(CSc1cn(CCNC(=O)c2cccs2)c2ccccc12)NC1CCCC1	4426	-1	-3	-0.2	0	11	4
C[N+]1(CCOS(=O)C23CC4CC(CC(C4)C2)C3)CCOCC1 (stereo not given)	3421	3	-10	6.8	-31	/	/
CCCCC(=O)OCC(=O)Nc1ccc(C)c(F)c1	3454	2	3	2.9	-8	2	0
CCN1C(=O)CC(NCc2ccc3c(c2)OCO3)C1=O (stereo not given)	10972	6	2	0.0	-2	6	4
CCCc1ncc(CN2CCCC(C(=O)Nc3ccc(-c4cccc(OC)c4)cc3)C2)cn1 (stereo not given)	5944	0	12	-0.2	-32	-7	6
Cc1cc(C)nc(N2CCC(CNC(=O)CCc3ccccc3)CC2)n1	4801	2	1	4.6	-10	/	/
Cc1ccc(C)c(S(=O)(=O)N2CCC(c3nc4c(nnn4Cc4ccc(F)cc4)c(=O)[nH]3)CC2)c1	3472	1	/	-14	-19	6	9
COc1ccc(-c2ccc(=O)[nH]n2)cc1	20511*	14	-13	6.6	-5	4	1
CCOc1ccccc1C(=O)Nc1ccccc1O	3806	-34	-4	-8.7	-23	3	2
CCC(C)[C@H](NC(=O)NCc1ccc(OC)c(OC)c1)C(=O)O (stereo not given in full)	4479	2	15	1.4	-28	14	5
CC(=O)c1ccc(Nc2cnn(C34CC5CC(CC(CC(=O)O)(C5)C3)C4)c(=O)c2Cl)cc1	3578	0	4	0.6	-18	10	2
CCOC(=O)CNC(=O)Cc1ccc(OC)cc1	3976	8	0	3.4	-20	8	9
CN(C)/C=C/C(=O)c1ccc(S(=O)(=O)c2ccccc2)cc1	4244	4	-5	3.5	-29	3	-6
CC(C)C(c1nnnn1CC1CCCO1)N1CCN(Cc2ccc3c(c2)OCO3)CC1 (stereo not given)	4546	9	-9	0.9	5	/	/
Cc1csc(N(C(=O)Cc2ccccc2F)c2ccccc2)n1	2586	11	5	7.3	-26	10	-13
CCOc1cccc(NC(=O)/C(C#N)=C\c2cn(CC(=O)O)c3ccccc23)c1	4063	2	-7	2.5	-13	6	7
Cc1ccc(CNC(=O)C(=O)NCC2OCCN2S(=O)(=O)c2ccc(Br)cc2)cc1 (stereo not given)	?	5	-1	4.6	11	-1	-4
O=C(Cc1ccccc1[N+](=O)[O-])Nc1ccccc1C(=O)N1CCOCC1	6320	2	16	8.4	38	13	3
COc1ccc(-c2cc(C(=O)NCC(C)C)no2)cc1	9689	-10	-7	-5.4	-122	-8	7
COc1cc2c(cc1OC)C(c1ccccc1Br)NC(=O)C2 (stereo not given)	3338	2	7	3.0	-11	-3	2
CCN(CC(=O)NCc1cccs1)CC(=O)Nc1cccc(S(N)(=O)=O)c1	2855	10	/	5.9	-1	10	-3
O=C(C[n+]1cn(C(F)F)c2ccccc21)c1ccc(OC(F)F)cc1	3791	5	-1	6.6	-12	6	10
Cc1ccc(CONS(=O)(=O)c2cc(C)ccc2C)cc1	4244	0	/	7.4	3	3	0
CCOC(=O)c1c(C)nc2c(C#N)cnn2c1C	2591	-7	-4	1.3	-24	/	/
COc1cc(C2C(C(C)=O)=C(O)C(=O)N2c2ccc(C)cc2)ccc1O (stereo not given)	2956	4	0	13	-12	-8	4
COc1ccc(C(C(=O)NCC2CCCO2)N(C(=O)Cn2nnc3ccccc32)c2ccc(NC(C)=O)cc2)c(OC)c1 (stereo not given)	3666	3	2	3.4	-15	6	14
Cc1cccc(N(CC(O)CON=C2c3ccccc3-c3ccccc32)S(C)(=O)=O)c1 (stereo not given)	6951	2	-2	2.2	-21	17	8
COc1ccc(OCc2n[nH]c(=S)o2)cc1	2782	-6	-2	3.0	6	/	/
COC(=O)CSc1nnc(C2COc3ccccc3O2)n1-c1ccccc1 (stereo not given)	5799	1	-4	4.4	-57	14	9
CC1(C)Cc2c(cnn2-c2ccc(F)cc2)C(NC(=O)C(C)(C)O)C1 (stereo not given)	4602	9	2	2.1	-22	11	2
Cc1ccc(C(=O)C2=C(O)C(=O)N(Cc3cccnc3)C2c2ccc(N(C)C)cc2)o1 (stereo not given)	3784	11	-12	-2.4	-25	10	7
COc1ccc(-n2nnc3c(=O)n(C/C=C/c4ccccc4)cnc32)cc1	9644	2	-15	0.2	-15	4	9
Oc1ccc(C=NNP(=S)(c2ccccc2)c2ccccc2)c(O)c1O	/	-14	/	-1.4	/	-5	4
COc1ccc(CNC(=O)C(OC(C)=O)c2ccccn2)cc1 (stereo not given)	4684	-1	2	2.0	-6	/	/
Next section
SMILES	Autofluor counter	Sa ugtP lethal	BJeLR lethal	Sa RN4220 lethal	PrP 5UTR inh	Mtb hypoxia rep	Mtb hypoxia rep growth
CC(C)N(Cc1ccccc1)C(=S)NC(=O)C1(C)CC1(Cl)Cl (stereo not given)	4295	-2	15	1.9	-9	7	6
CN1CCN(S(=O)(=O)c2ccc(NC(=O)C3CCCO3)cc2)CC1 (stereo not given)	10192	5	-4	4.9	-28	11	5
CC(=O)N1CCN(c2ccc(NCc3ccc(C)s3)cc2)CC1	5536	-9	-3	-13	4	5	4
COc1ccc2c(c1)CC[C@@H]1[C@@H]2CC[C@]2(C)[C@@H](C(=O)O)C[C@@H]12	3284	/	0	/	-6	/	/
O=C(OCCO)c1cc(Cl)c(C(=O)OCCO)cc1Cl	3756	3	-11	4.5	-21	/	/
Cc1nn(-c2ccccc2)cc1/C=N/O	5979	/	1	/	-21	/	/
Cc1ccc(C)c(NC(=O)C(OC(=O)c2ccc(C)s2)c2ccccc2)c1 (stereo not given)	6642	8	-12	7.0	0	3	2
O=C(Nc1ccccc1N1CCCC1)c1cccc(-c2cc3ccccc3oc2=O)c1	10003	9	-10	13	-21	1	3
Cc1nc2nc(SCC(=O)Nc3cccc(F)c3)[nH]c2cc1Br	5345	-12	-1	-1.0	-22	-1	-5
COc1ccc(NC(=O)c2ccc3c(c2)OCO3)cc1[N+](=O)[O-]	4556	0	-6	4.0	-64	0	-11
O=C(CCc1nc(-c2ccccc2Cl)no1)NCC1CCCO1 (stereo not given)	4108	2	3	5.9	-22	12	1

Screening results deposited in PubChem BioAssay by several laboratories.

Random draw from the library; overall some 4% were active at least once.
